High-throughput results as filed in PubChem BioAssay.
Env fusion inh: blocks HIV Env-driven cell-cell fusion; AID 651610; HeLa-JRFL Env/CEM21 cell fusion, luciferase; inhibition, % at 12.3 µM; hit rate 1.1% among 360,000;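 active means mean replicate inhibition score of at least 50 and every replicate individually at or above 50; inconclusive means only one of the two criteria met; inactive means mean below 50 and not all replicates reaching 50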;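 further: 0% = plate neutral controls and 100% = maraviroc near 300 nM; one replicate is shown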
CSC inhib: blocks cancer stem cells; cancer stem cell-like cells viability, luminescence; inhibition, % at 7.5 µM; hit rate 1.1% among 300,000;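 active means mean at 75% or more and at least half the replicates too; inconclusive means mean and replicates disagree; tested in HMLE shEcad cells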;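 further: 0% = median of negative and 100% = median of positive control wells; the first replicate is given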
MT1-MMP act inh: blocks activation of human MT1-MMP; P50281; HT1080 RFP-PRO-GFP cells, GFP/RFP ratio fluorescence, overnight; percent of plate control window, DMSO zero; GFP/RFP ratio change, % at 20 µM; hit rate 0.061% among 360,000; AID 651647;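 active means GFP/RFP ratio change of at least 30% with cell ATP level not reduced by more than half and red fluorescence within 50% of control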; further: strong numbers were not always called active
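Assay system: HT1080 RFP-PRO-GFP cells | Dosing: 20 µM single dose, 1% DMSO | Incubation: Cells overnight before dosing, compound overnight, 37 °C, 5% CO2 | Evaluation: GFP/RFP fluorescence ratio | Control set: DMSO-only wells and HT1080 RFP-L50D-GFP cell wells as references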
Rce1 inh: blocks yeast Ras-converting enzyme | Q03530 | yeast membranes, quenched prenylated peptide cleavage fluorescence | AID 2563 | hit rate 0.27% among 290,000 | calls only;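 active means fall in fluorescence gain of 50% or more versus controls, with final raw signal at or below 3038400; inconclusive means same 50% fall but final raw signal above 3038400; inactive means fall in fluorescence gain under 50%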;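 further: plate controls were neutral control wells for no effect and wells lacking membranes for full effect; tested at 10 µM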
UUG fidelity: alters start codon recognition fidelity in yeast. S. cerevisiae UUG-firefly luciferase reporter, luminescence/redox ratio. activity score, % at 18.7 µM. hit rate 0.13% among 350,000. AID 602363;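 active means replicate mean at a twofold rise or more, about +100% in these data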;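 further: firefly luciferase made from a UUG start codon reports start codon fidelity; reporter light over untreated wells divided by growth signal over untreated wells; some hits fall short of that in this replicate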
PABP polyA inh: PABP-poly(A) binding inhibition; P11940; PABP-poly(A) RNA binding, fluorescence polarization; inhibition, % at 35 µM; hit rate 1% among 290,000; AID 2014;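 active means 50% or more with normal probe brightness, or confirmed in later tests; inconclusive means above 50% with abnormal brightness, or retests that disagree; inactive means below 50% or failed in later tests; about a fifth of its hits are not listed in these tables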;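 further: calls also rest on retests at 20 µM and on dose response follow-up; controls were probe without protein and protein plus probe with vehicle; some compounds called inactive have numbers as strong as hits; many hits fall short of the cut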
Target sequence (P11940 whole entry, looked up): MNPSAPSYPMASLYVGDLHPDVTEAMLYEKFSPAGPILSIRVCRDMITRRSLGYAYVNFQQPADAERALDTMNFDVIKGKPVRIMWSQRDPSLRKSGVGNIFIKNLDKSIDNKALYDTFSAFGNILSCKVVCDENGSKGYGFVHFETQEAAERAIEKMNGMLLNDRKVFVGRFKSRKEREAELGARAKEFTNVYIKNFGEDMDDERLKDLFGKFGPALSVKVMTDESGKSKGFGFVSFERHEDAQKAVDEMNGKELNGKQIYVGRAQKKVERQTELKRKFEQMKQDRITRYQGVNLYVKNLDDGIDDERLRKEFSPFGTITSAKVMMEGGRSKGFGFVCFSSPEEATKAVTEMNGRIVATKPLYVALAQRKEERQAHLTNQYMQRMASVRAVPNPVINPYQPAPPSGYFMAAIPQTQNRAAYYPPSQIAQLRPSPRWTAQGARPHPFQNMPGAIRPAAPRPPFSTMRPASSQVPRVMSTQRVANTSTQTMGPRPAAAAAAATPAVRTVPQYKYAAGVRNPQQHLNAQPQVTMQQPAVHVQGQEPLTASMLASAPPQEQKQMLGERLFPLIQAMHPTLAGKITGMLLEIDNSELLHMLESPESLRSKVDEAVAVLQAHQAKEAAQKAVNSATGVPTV
eIF4H FP inh: inhibitors of RNA binding by human eIF4H; hit rate 0.94% among 290,000; eIF4H fluorescence polarization binding assay; AID 2012; inhibition, % at 35 µM; Q15056;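 active means 50% or more with normal probe brightness, or confirmed in later tests; inconclusive means above 50% with abnormal brightness, or retests that disagree; inactive means below 50% or failed in later tests; about a fifth of its hits are not listed in these tables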;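 further: calls also rest on retests at 20 µM and on dose response follow-up; 0% = protein and probe with vehicle and 100% = probe without protein; strong numbers were not always called active; many hits fall short of the cut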
eIF4H FP inh retest: further read-out of eIF4H FP inh, marked with its call; inhibition, %; compound at 20 µM; confirmation average;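 mean of two retest wells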
PABP polyA inh retest: further read-out of PABP polyA inh, marked with its call; inhibition, %; compound at 20 µM; confirmation repeats;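 mean of two retest wells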
MT1-MMP act inh RFP: also measured in MT1-MMP act inh; calls as there; RFP signal change, %; measured here: RFP expression control read;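 0 = vehicle wells; hits needed this value within 50% of zero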
An asterisk follows results filed as active; i = inactive; u = inconclusive; x = not tested or not shown.

SMILES	Env fusion inh	CSC inhib	MT1-MMP act inh	MT1-MMP act inh RFP	Rce1 inh	UUG fidelity	PABP polyA inh	eIF4H FP inh	others
CC(=O)c1cnc2cc(-c3ccccc3)nn2c1C	x	0.1	5.7	2.4	i	-4.5	0.2	-7.7
CCOc1ccc(/C=C/c2nc(C#N)c(NCCCOC)o2)cc1	-156.0	55.5	1.7	-12.5	i	3.1	-1.7	-1.0
Cc1ccc2nc(NC(=O)CSCC(=O)OCC(=O)c3ccc(Br)cc3)sc2c1	73.1*	-20.9	3.5	6.8	i	-13.7	-14.7	0.8
COc1cc(O)c2c(=O)c3c(O[C@H]4O[C@@H](CO)[C@H](O)[C@@H](O)[C@@H]4O)ccc(O)c3oc2c1	-2.3	-4.8	8.2	3.4	x	-10.2	x	x
COc1ccc(S(=O)(=O)Nc2cc(C)c(O)c(S(=O)(=O)c3ccccc3)c2)cc1	-28.9	-6.5	5.9	-1.8	i	0.4	-4.0	-2.6
O=C(OCCOCCN=C1NS(=O)(=O)c2ccccc21)C1CC(=O)N(c2ccccc2)C1 (stereo unspecified)	x	-9.3	6.9	4.4	i	-6.4	14.1	4.6
CC(=O)Nc1ccc(S(=O)(=O)NNC(=O)CCC(=O)Nc2cc(C)ccc2C)cc1	-4.6	3.0	2.9	2.3	i	x	5.3	52.9	eIF4H FP inh retest=0.1;PABP polyA inh retest=-2.2
CCOC(=O)c1c(C)oc2cc(Br)c(OCC(N)=O)cc12	-260.6	9.5	-0.5	2.3	i	-11.3	-10.2	-0.7
COc1ccccc1/C=C/C(=O)NCC(=O)N/N=C/c1ccccc1	-5.8	9.5	4.1	3.2	i	x	10.7	3.5
Cn1c(NC(=O)Cc2cccs2)cc(=O)n(C)c1=O	10.4	x	1.9	8.9	i	-10.8	1.5	8.9
CC1CCCCN1CCNC(=O)CC1Oc2ccccc2NC1=O (stereo unspecified)	-4.4	-14.6	1.5	5.5	i	-5.4	1.1	-3.8
O=C(Nc1cnn(Cc2ccc(Cl)cc2)c1)c1cnccn1	-21.0	-1.6	-5.0	5.0	i	10.1	-5.0	-6.0
Cc1ccc(CN(C(=O)COc2ccc(C)c(C)c2)C2CCS(=O)(=O)C2)o1 (stereo unspecified)	6.6	-1.1	-2.1	0.7	i	0.1	1.2	-13.2
CCN(C(=O)CN(C1=NC2CS(=O)(=O)CC2S1)c1ccc(OC)cc1)c1cccc(C)c1 (stereo unspecified)	-7.2	x	1.5	4.5	x	-6.4	x	x
COC(=O)NCc1cccc(CNC(=O)OC)c1	x	11.0	1.0	0.2	i	-3.1	-4.3	-4.4
COc1ccccc1-c1ccc([C@@H]2C[C@H]3[C@H](CON3C)CN2C(=O)c2ccco2)cc1	-9.2	x	2.4	0.7	x	-4.2	x	x
COc1ccc(-c2cccc(C3CC=CC4C3C(=O)N(Cc3ccccc3)C4c3cc(C)ccc3F)c2)cc1 (stereo unspecified)	x	x	x	x	i	x	-5.7	-9.9
O=C(CSc1nc(-c2ccco2)cc(C(F)(F)F)n1)NN1CCOCC1	5.3	-7.4	-0.8	0.5	i	x	-7.1	-3.3
COCCCNC(=O)C(C#N)c1nc2ccccc2nc1N1CCCC1 (stereo unspecified)	x	-3.6	-5.0	4.1	i	0.6	x	x
CCCCn1nnnc1C(CC)N1CCN(C/C=C/c2ccccc2)CC1 (stereo unspecified)	-3.3	x	5.2	2.5	x	5.3	x	x
COc1cccc(NC(=O)C2CCCN2C(=O)NC2CCCCC2)c1 (stereo unspecified)	1.2	x	3.5	1.5	i	-2.5	7.8	1.1
COC(=O)c1cccc(NC(=O)Cc2ccccc2[N+](=O)[O-])c1C	x	-18.5	-1.4	-0.4	i	x	12.1	-2.2
Cc1c(CCC(=O)NCCCC(=O)O)c(=O)oc2cc3oc4c(c3cc12)CCCC4	15.5	-17.8	-1.2	3.3	i	-7.8	3.3	0.1
COc1ccc(-n2c(=O)/c(=C\c3cccs3)s/c2=C(/C#N)C(=O)NCCN2CCOCC2)cc1	-5.3	-13.2	-6.5	0.6	i	10.6	-6.6	u
Cc1ccc2sc(NNC(=O)C3COc4ccccc4O3)nc2c1C (stereo unspecified)	7.7	28.2	2.9	2.6	x	-12.4	16.3	8.7
Cc1ccc(/C=N/n2cc(-c3ccccc3)[nH]c2=S)s1	-1.0	-9.7	2.6	1.4	i	-22.9	-5.3	-0.3
COc1ccc(C2/C(=C(\O)c3ccc4c(c3)OCCO4)C(=O)C(=O)N2Cc2cccnc2)cc1OC (stereo unspecified)	-4.2	-12.5	-0.1	1.8	i	-15.0	-8.9	-2.5
FC(F)(F)c1ccc(NCCc2ccccc2)nc1	-17.7	-17.7	1.7	1.2	i	-14.9	-1.2	-1.0
C=CCn1c(COc2ccccc2F)nnc1SCCN1C(=O)c2ccccc2C1=O	10.8	-14.8	6.6	-3.3	i	4.5	-13.0	-9.6
CC12CCC(C/C1=N/O)C2(C)C (stereo unspecified)	x	9.4	1.3	1.4	i	-7.0	11.5	4.6
CCOc1ccc(NC(=O)CCC(=O)n2nc(C)cc2C)cc1	x	5.0	x	x	i	x	5.0	2.9
COc1ccc(OC)c(CN2CCN(C(=O)c3cc(S(=O)(=O)Nc4ccccc4OC)ccc3C)CC2)c1	-28.6	x	-7.7	-5.6	i	8.7	-0.7	-2.1
CC(C)(C)N(Cc1ccccc1)C(=O)COC(=O)CN1C(=O)NC2(CCCC2)C1=O	9.7	-1.7	1.7	1.5	i	-2.1	-0.6	-1.9
CC(C)CNC(=S)N(Cc1ccco1)Cc1cc2cc3c(cc2[nH]c1=O)OCCO3	-1.0	-8.9	-9.3	-4.3	i	-3.9	-7.6	1.6
CSc1ccc(S(=O)(=O)NCC(=O)OCC(=O)NCc2cccs2)cc1[N+](=O)[O-]	-2.2	-3.4	1.9	3.5	i	-0.4	x	x
O=C(Nc1cccc(OCC(=O)N2CCOCC2)c1)c1cccc([N+](=O)[O-])c1	16.6	-2.4	-0.6	0.3	i	x	-0.2	-7.0

Quoted at random: 6 records from the list
SMILES	Env fusion inh	CSC inhib	MT1-MMP act inh	MT1-MMP act inh RFP	Rce1 inh	UUG fidelity	PABP polyA inh	eIF4H FP inh	others
Cc1ccc2sc(NNC(=O)C3COc4ccccc4O3)nc2c1C (stereo unspecified)	7.7	28.2	2.9	2.6	x	-12.4	16.3	8.7
Cc1ccc(/C=N/n2cc(-c3ccccc3)[nH]c2=S)s1	-1.0	-9.7	2.6	1.4	i	-22.9	-5.3	-0.3
COc1ccc(C2/C(=C(\O)c3ccc4c(c3)OCCO4)C(=O)C(=O)N2Cc2cccnc2)cc1OC (stereo unspecified)	-4.2	-12.5	-0.1	1.8	i	-15.0	-8.9	-2.5
COc1ccc(OC)c(CN2CCN(C(=O)c3cc(S(=O)(=O)Nc4ccccc4OC)ccc3C)CC2)c1	-28.6	x	-7.7	-5.6	i	8.7	-0.7	-2.1
CC12CCC(C/C1=N/O)C2(C)C (stereo unspecified)	x	9.4	1.3	1.4	i	-7.0	11.5	4.6
O=C(Nc1cccc(OCC(=O)N2CCOCC2)c1)c1cccc([N+](=O)[O-])c1	16.6	-2.4	-0.6	0.3	i	x	-0.2	-7.0

More entries:
SMILES	Env fusion inh	CSC inhib	MT1-MMP act inh	MT1-MMP act inh RFP	Rce1 inh	UUG fidelity	PABP polyA inh	eIF4H FP inh	others
O=S1(=O)N=C(N/N=C/c2ccc(Br)o2)c2ccccc21	-3.1	-2.4	1.8	6.7	x	x	u	-9.5
CCOc1ccc(N2C(=O)/C(=C\c3ccc(OC)c(O)c3)S(=O)(=O)C2c2cccc([N+](=O)[O-])c2)cc1 (stereo unspecified)	14.3	-4.7	-0.4	-2.5	i	x	-17.4	-0.2
CCOc1cc(C2NC(=O)NC(O)(C(F)(F)F)C2C(=O)c2ccccc2)ccc1OC (stereo unspecified)	-141.7	x	2.7	2.9	i	-9.5	-7.9	-6.0
Cc1sc2ccccc2c1CNC[C@H]1O[C@@H](n2ccc(N)nc2=O)[C@H](O)[C@@H]1O	u	x	-3.3	3.2	x	-11.8	x	x
COc1ccc(/C=N/NC(=O)c2cc3c(OC)ccc(OC)c3[nH]2)cc1O	-259.2	73.8	20.7	-2.1	i	x	-5.7	1.9
Cn1cc([N+](=O)[O-])c(C(=O)Nc2ccc(C(=O)N3CCCCC3)cc2)n1	6.4	x	-3.4	-11.9	i	x	17.4	3.4
CN(C)/C=C\C(=C/C(=O)C(F)(F)F)Nc1ccccc1Oc1ccccc1	13.5	-9.8	-2.1	0.0	i	x	-10.0	10.9
C=CCc1ccc(OCC(O)CN2CCCCC2C)c(OC)c1 (stereo unspecified)	x	-12.9	1.8	3.8	i	7.4	17.8	6.2
Clc1ccc(CSc2snnc2-c2ccccc2)cc1	-82.6	x	-2.3	-4.5	i	-15.5	-7.7	-3.6
CCn1cc(C(=O)NCCCN(C)C)c(=O)c2cc(F)c(N3CCN(C)CC3)cc21	34.3	-10.9	3.9	4.1	i	-2.6	60.8	-2.9	eIF4H FP inh retest=9.7;PABP polyA inh retest=1.8
O=C(c1ccccc1)c1ncc[nH]1	-12.2	0.8	-0.5	-0.3	i	-12.7	10.0	-5.0
COc1ccc(N2C(=O)/C(=C/c3ccc([N+](=O)[O-])cc3)N=C2C)cc1	21.8	-7.3	1.0	-1.1	i	x	19.7	-3.3
CCOC(=O)C1=C(c2ccccc2)ON(C)C1c1ccccc1 (stereo unspecified)	7.3	2.0	1.3	5.7	i	4.3	-0.8	9.8
CCC(C)(C(=O)NC1CCCCC1)N(C)C(=O)c1ccccn1 (stereo unspecified)	x	-4.5	-2.9	-0.9	i	-15.9	-1.2	-8.4
CS(=O)(=O)Nc1ccc(-c2cn3cccnc3n2)cc1	-1.5	-1.1	1.7	-1.0	i	-9.8	7.1	1.5
CC(C)CNS(=O)(=O)c1ccc(CCC(=O)N2CCOCC2)cc1	12.8	-3.9	-0.5	3.9	x	-7.4	3.0	-0.1
COc1ccc([C@@H]2C[C@H]3[C@@H](CN2S(=O)(=O)c2ccccc2)C(=O)C[C@@H](c2ccccc2)N3S(=O)(=O)c2ccc(C)cc2)cc1	4.5	x	1.5	-1.2	x	-18.6	x	x
Cc1cc(C)c(S(=O)(=O)N2CCN(C(=O)N3CCCCC3)CC2)c(C)c1	-5.7	-11.4	-0.3	-2.0	i	7.0	-2.8	-4.2
Cn1ncc(C#N)c1NC(=O)c1nn2cccnc2c1Cl	x	-2.6	7.7	3.6	i	-0.6	0.9	-12.6
O=C(NCCC(F)(F)F)C1Cc2c(-c3cccc(F)c3)ccnc2O1 (stereo unspecified)	-1.1	x	-0.3	-2.0	x	-19.7	x	x
CN(C)Cc1c(O)ccc2c3c(c(=O)oc12)CCCCC3	x	-9.4	7.8	2.1	u	x	3.5	-0.9
Cc1ccccc1NC(=O)C1C2CCCCC21 (stereo unspecified)	-24.8	2.7	1.9	6.2	i	-15.2	-0.2	-6.9
CC1CCN(Cc2nnc(-c3cccc(Br)c3)o2)CC1	-1.3	-8.3	3.4	-1.2	i	-12.3	-0.2	1.9
O=C(Nc1ccccc1Cl)c1ccn[nH]1	x	0.5	2.7	3.4	i	-14.5	-3.4	-5.5
CCN(CC(=O)NCc1ccc(Cl)cc1)C(=O)c1ccc(C#N)cc1	-11.8	-16.8	-0.8	3.2	i	-6.3	19.8	-10.2
